aSyn rescue – rescues yeast growth from alpha-synuclein toxicity; Yeast expressing alpha-synuclein, growth rescue, BacTiter-Glo, 24 h; AID 652106; actives 0.14% (n = 370,000); Potency, µM (titrated, usually from 46.1 µM), for inactives: at the top dose growth rescue (activation), hits mostly activators; also: % of control where 0% means no effect; nearly all actives have a fitted effect of over 65% in size
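Screening used galactose-induced yeast with toxic alpha-synuclein levels, exposed to compound for 24 hr at 30 deg C. Cell growth, read with BacTiter-Glo luminescence, gave the measured signal.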
PTHR1 ag – activates the human parathyroid hormone receptor PTHR1; Q03431; HEK293 GP2 PTHR1 cells, GloSensor cAMP luminescence, 1 h; Potency, µM (top dose mostly 115 µM), for the others: top-dose activation, hits mostly activators; actives 0.075% (n = 410,000); also: nearly all actives have a fitted effect of over 55% in size; some results filed as inactive show a strong effect at the top dose; inactives centre near -15; many of its hits are not listed in these tables
Target sequence (Q03431 whole entry, looked up): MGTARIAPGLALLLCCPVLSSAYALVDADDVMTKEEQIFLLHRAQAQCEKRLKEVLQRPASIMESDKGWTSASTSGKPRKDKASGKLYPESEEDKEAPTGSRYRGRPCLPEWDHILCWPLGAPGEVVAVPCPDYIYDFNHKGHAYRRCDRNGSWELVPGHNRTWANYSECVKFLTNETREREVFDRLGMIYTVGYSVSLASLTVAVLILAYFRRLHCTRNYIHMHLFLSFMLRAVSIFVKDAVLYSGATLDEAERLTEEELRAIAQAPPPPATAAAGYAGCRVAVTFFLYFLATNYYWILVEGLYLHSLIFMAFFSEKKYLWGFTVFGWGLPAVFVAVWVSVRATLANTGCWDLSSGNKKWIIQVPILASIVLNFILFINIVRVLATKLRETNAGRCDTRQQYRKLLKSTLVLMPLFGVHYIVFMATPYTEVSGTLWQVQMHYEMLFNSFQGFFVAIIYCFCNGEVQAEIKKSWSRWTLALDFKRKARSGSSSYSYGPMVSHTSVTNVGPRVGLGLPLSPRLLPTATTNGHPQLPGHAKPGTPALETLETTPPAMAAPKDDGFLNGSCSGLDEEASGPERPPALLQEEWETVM
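HEK-293-derived GP2 cells expressing PTHR1 and a GloSensor cAMP reporter, 3,000/well, plated overnight, given luciferin plus IBMX (each 0.5 mM as added) for 1 h at 37 °C, then compound for 1 h at 37 °C. Luminescence was read after 15 min at room temperature.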
EPAC1 ag – agonists of human EPAC1; O95398; EPAC1 agonist qHTS, biochemical assay; response scale: 100% = response to 6.5 mM cAMP; AID 720707; Potency, µM (top dose mostly 154 µM), without a hit: at the top dose activation, actives largely listed as activators; actives 0.073% (n = 360,000); also: nearly all actives have a fitted effect of over 60% in size
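Fluorescent GDP-exchange assay: 100 nM EPAC1 with 250 nM Rap1B preloaded with BODIPY-GDP and 50 uM GDP; compounds tested as concentration series, 5 min at room temperature, then read every 5 min for 30 min (ex 480/em 540 nm); normalized to 6.5 mM cAMP.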
FUS yeast rescue – rescues growth of FUS-expressing yeast; S. cerevisiae FUS-expressing, growth rescue, OD600, 24 h; actives 0.24% (n = 390,000); AID 1347120; Potency, µM (titrated, usually from 76.6 µM), inactives show top-dose growth rescue (activation), hits mostly activators;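 also: plate controls were DMSO vehicle for no effect and reference control for full effect; nearly all actives have a fitted effect of over 55% in size; some results filed as inactive show a strong effect at the top dose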
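Compound concentration series was pinned onto galactose-induced FUS-expressing yeast seeded at OD 0.005. Plates sat 24hr at 30C; absorbance at 600 nm gave growth. DMSO served as background control.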
TDP-43 yeast inh – TDP-43 toxicity inhibition in yeast. actives 1.8% (n = 410,000). Potency, µM (doses to about 46.1 µM), for inactives: top-dose growth rescue (activation), usual class: activators. TDP-43 expressing yeast growth rescue, BacTiter-Glo, 24 h; also: % of control where 0% means no effect; nearly all actives have a fitted effect of over 50% in size
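In this qHTS, compounds that restore growth of yeast expressing TDP-43 appear as activators. Cells (OD600=0.02, galactose medium, raffinose-pregrown) are incubated with compound 24 hr at 30 deg C and growth is quantified by BacTiter-Glo.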
EPAC1 antagonist – EPAC1 (human) antagonism; EPAC1 GEF assay, Rap1b-BODIPY-GDP exchange fluorescence; Potency, µM (top dose mostly 115 µM), for the others: top-dose activity change, negative = inhibition, most hits filed as inhibitors; actives 0.14% (n = 360,000); O95398;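 also: plate controls were vehicle for no effect and positive control for full effect; nearly all actives have a fitted effect of over 50% in size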
An asterisk follows results filed as active; i = inactive; u = inconclusive; x = no result given; & = joins results of further samples; [ ] = dose if it differs, or a comment. Calls follow the shape of the dose curve; as a rule, active = well fitted curve in the direction sought with a large enough effect; inconclusive = small, poorly fitted or top-dose-only effect, or another doubt; inactive = no such curve, though single readings can be large; an effect the other way counts as inactive or inconclusive. Potency is read from the fitted curve at half-maximal effect.

The opening 17 records as a preview:
SMILES	aSyn rescue	PTHR1 ag	EPAC1 ag	FUS yeast rescue	TDP-43 yeast inh	EPAC1 antagonist
Cc1oc2c(F)c(F)c(F)c(F)c2c1S(=O)(=O)Nc1cccc(C(F)(F)F)c1	-63.7%[inhibitor]	-95.1%[inhibitor]	-8.7%	28.8%	-74.0%[inhibitor]	u
C=CCNC(=O)c1onc(CCl)c1C(=O)OC	-1.4%	-3.9%	4.9%	-21.8%	7.3%	0.8%
CCC(=O)N(CCC(c1ccco1)C(C)C)Cc1ccccc1 (stereo unspecified)	7.1%	i	-8.5%	20.8%	9.3%	-17.1%
Cc1nn(-c2c(Cl)cc(Cl)cc2Cl)c(=O)c2ccccc12	-4.4%	-13.0%	13.8%	11.0%	6.4%	1.4%
CCCCNc1c(-c2cccc(SC3CCCCC3)c2)nc2ccc(Cl)cn12	-14.2%&-12.5%	-4.7%&-13.3%	6.2%&5.1%	12.1%&19.9%	-3.6%&-15.8%	-7.1%&10.2%
Cc1cc(C)c(S(=O)(=O)Nc2cccc(-n3cnnn3)c2)c(C)c1	-3.0%	-0.6%	-0.5%	-9.5%	3.4%	u
COC(=O)c1ccc(N/C=C/C(=O)c2ccccc2)cc1	-1.4%	i	4.8%	-1.0%	-3.2%	-3.4%
COC(=O)C1=NN(c2ccccc2)C2(S1)SC(C(C)=O)=C(C)N2c1ccccc1 (stereo unspecified)	0.1%	-2.1%[57.5 µM]	8.1%	3.7%	-0.9%	6.8%
Cc1ccc([N+](=O)[O-])cc1-c1ccc2cccc(C)c2n1	0.5%	i	4.1%	8.9%	6.2%	-14.8%
COc1ccc(OC)c(-n2c(-c3cccc(O)c3)n[nH]c2=S)c1	-10.3%	i	5.2%	-6.1%	-4.6%	1.4%
COc1ccc(C2SCC(C(=O)O)N2C(C)=O)cc1 (stereo unspecified)	5.6%	u	-8.2%	-2.6%	-16.4%	1.7%
O=C1C2C3C=CC(C3)C2C(=O)N1CCN1CCN(Cc2ccc([N+](=O)[O-])cc2)CC1 (stereo unspecified)	0.0%	-17.2%	-6.9%	4.6%	-4.4%	9.6%
O=[N+]([O-])c1cc(C(F)(F)F)ccc1NCCOc1ccccc1	3.4%	-87.8%[inhibitor]	-12.8%	x	18.1%	u
O=C1CCN(Cc2nc(-c3ccc(Cl)cc3)no2)CCN1	-0.8%	-19.0%	0.7%	-16.9%	-1.6%	4.6%
COc1ccc(OC)c(S(=O)(=O)N2CCCCCC2)c1	5.7%	i	0.8%	-2.7%	27.9%	4.3%
Cc1ccc(N(CN2C(=O)C3CC=CCC3C2=O)C(=O)c2ccco2)cc1Cl (stereo unspecified)	1.8%	i	-0.2%	29.7%	0.9%	-4.9%
COc1cc(C(=O)NCc2cccc3ccccc23)ccc1OCc1ccccc1	4.8%	i	11.0%	22.1%	u	-25.2%

This part in full, previewed entries included:
SMILES	aSyn rescue	PTHR1 ag	EPAC1 ag	FUS yeast rescue	TDP-43 yeast inh	EPAC1 antagonist
Cc1oc2c(F)c(F)c(F)c(F)c2c1S(=O)(=O)Nc1cccc(C(F)(F)F)c1	-63.7%[inhibitor]	-95.1%[inhibitor]	-8.7%	28.8%	-74.0%[inhibitor]	u
C=CCNC(=O)c1onc(CCl)c1C(=O)OC	-1.4%	-3.9%	4.9%	-21.8%	7.3%	0.8%
CCC(=O)N(CCC(c1ccco1)C(C)C)Cc1ccccc1 (stereo unspecified)	7.1%	i	-8.5%	20.8%	9.3%	-17.1%
Cc1nn(-c2c(Cl)cc(Cl)cc2Cl)c(=O)c2ccccc12	-4.4%	-13.0%	13.8%	11.0%	6.4%	1.4%
CCCCNc1c(-c2cccc(SC3CCCCC3)c2)nc2ccc(Cl)cn12	-14.2%&-12.5%	-4.7%&-13.3%	6.2%&5.1%	12.1%&19.9%	-3.6%&-15.8%	-7.1%&10.2%
Cc1cc(C)c(S(=O)(=O)Nc2cccc(-n3cnnn3)c2)c(C)c1	-3.0%	-0.6%	-0.5%	-9.5%	3.4%	u
COC(=O)c1ccc(N/C=C/C(=O)c2ccccc2)cc1	-1.4%	i	4.8%	-1.0%	-3.2%	-3.4%
COC(=O)C1=NN(c2ccccc2)C2(S1)SC(C(C)=O)=C(C)N2c1ccccc1 (stereo unspecified)	0.1%	-2.1%[57.5 µM]	8.1%	3.7%	-0.9%	6.8%
Cc1ccc([N+](=O)[O-])cc1-c1ccc2cccc(C)c2n1	0.5%	i	4.1%	8.9%	6.2%	-14.8%
COc1ccc(OC)c(-n2c(-c3cccc(O)c3)n[nH]c2=S)c1	-10.3%	i	5.2%	-6.1%	-4.6%	1.4%
COc1ccc(C2SCC(C(=O)O)N2C(C)=O)cc1 (stereo unspecified)	5.6%	u	-8.2%	-2.6%	-16.4%	1.7%
O=C1C2C3C=CC(C3)C2C(=O)N1CCN1CCN(Cc2ccc([N+](=O)[O-])cc2)CC1 (stereo unspecified)	0.0%	-17.2%	-6.9%	4.6%	-4.4%	9.6%
O=[N+]([O-])c1cc(C(F)(F)F)ccc1NCCOc1ccccc1	3.4%	-87.8%[inhibitor]	-12.8%	x	18.1%	u
O=C1CCN(Cc2nc(-c3ccc(Cl)cc3)no2)CCN1	-0.8%	-19.0%	0.7%	-16.9%	-1.6%	4.6%
COc1ccc(OC)c(S(=O)(=O)N2CCCCCC2)c1	5.7%	i	0.8%	-2.7%	27.9%	4.3%
Cc1ccc(N(CN2C(=O)C3CC=CCC3C2=O)C(=O)c2ccco2)cc1Cl (stereo unspecified)	1.8%	i	-0.2%	29.7%	0.9%	-4.9%
COc1cc(C(=O)NCc2cccc3ccccc23)ccc1OCc1ccccc1	4.8%	i	11.0%	22.1%	u	-25.2%
CCOc1cc(S(=O)(=O)N2CCCC2)c(C)cc1C	0.9%	i	7.4%	2.7%	-7.1%	-9.3%
COc1ccccc1Cc1c(-c2ccc(C)cc2)nc2ccc(Br)cn12	-1.9%	-73.7%[inhibitor]	9.6%	10.3%	3.0%	-17.1%
CCc1ccc([C@@H]2CC=C(C(=O)O)[C@H](c3ccc(Cl)cc3)N2S(=O)(=O)c2ccc(C)cc2)cc1	u	-31.1%[inhibitor]	-19.2%	-19.6%	20.0%	u
COc1ccc(S(=O)(=O)Nc2ccc(S(=O)(=O)N3CCCCC3)cc2)cc1C	-0.1%	-6.6%[57.5 µM]	17.0%	40.6%	-13.4%	3.9%
CCc1ccc(NS(=O)(=O)c2ccc(OC)c3ncccc23)cc1	0.8%	-33.0%[inhibitor]	0.3%	-1.3%	-3.4%	u
COc1ccc2c(c1)CCc1c(C(=O)N3CCc4ccccc4C3)noc1-2	-22.3%	i	15.4%	31.6%	26.9%	-7.2%
COc1cc(F)ccc1-c1cc(C(=O)NCc2cccc(Cl)c2)[nH]n1	-1.6%	i	2.7%	-16.3%	11.9%	u
CC(C)CN(C(=O)c1ccco1)c1nc2ccccc2s1	-6.3%	i	-12.1%	4.4%	-10.1%	-20.3%
COc1ccc(NS(=O)(=O)c2ccc(OC)c3ccccc23)cn1	11.6%	i	14.2%	15.4%	19.9%	4.9%
Cc1ccc(SCC(=O)NCC2COc3ccccc3O2)cc1 (stereo unspecified)	17.6%	-16.3%	-0.9%	x	-14.1%	14.9%
C=CCN(CC=C)Cc1cc(=O)oc2cc(C)cc(C)c12	8.2%	9.8%	-4.4%	-28.2%	9.0%	-18.9%
COc1ccc2c3n([n+]([O-])c2c1)CCN=C3c1cc(Cl)c(N)c(Cl)c1	8.5%	i	-8.6%	-14.4%	10.6%	-14.5%
Cc1c(N2C(=O)CSC2c2ccccc2)c(=O)n(-c2ccccc2)n1C (stereo unspecified)	4.2%	i	-0.8%	-4.9%	3.4%	-17.1%
CCOC(=O)C1=C(C)Nc2nnnn2C1c1cccnc1 (stereo unspecified)	0.3%	i	-5.2%	8.3%	3.2%	10.7%
COc1ccccc1CN(C)C(=O)C1(c2ccc(Cl)cc2)CC1	14.3%	-21.0%	-4.0%	16.2%	26.1%	26.9%
Cc1cccc(N2CCN(C(=O)c3cc(COc4ccc(F)c(F)c4)on3)CC2)n1	8.0%	-23.5%	5.8%	4.1%	u	-2.6%
COC(=O)c1ccc2nc(-c3ccc(Cl)cc3)c(CC3CCCCC3)n2c1	0.1%	i	11.6%	6.2%	u	0.6%

Screens deposited in PubChem BioAssay by National Center for Advancing Translational Sciences (NCATS).

Only part of the results is shown; count on the stated rates, not on these rows.
